Screening results as filed in PubChem BioAssay.
VDR inh = inhibitors of human vitamin D receptor; VDR-SRC2-3 peptide fluorescence polarization, 2 h; P11473; AID 504847; Potency, µM, inactives show max response, negative = inhibition, hits mostly inhibitors; hit rate 0.93% among 400,000; active = well fitted inhibition curve with a large enough effect; inconclusive = small, poorly fitted or top-dose-only effect, or another doubt; inactive = no such curve, though single readings can be large or run the other way; also: series mostly up to about 120 µM
Target sequence (P11473 whole entry, looked up): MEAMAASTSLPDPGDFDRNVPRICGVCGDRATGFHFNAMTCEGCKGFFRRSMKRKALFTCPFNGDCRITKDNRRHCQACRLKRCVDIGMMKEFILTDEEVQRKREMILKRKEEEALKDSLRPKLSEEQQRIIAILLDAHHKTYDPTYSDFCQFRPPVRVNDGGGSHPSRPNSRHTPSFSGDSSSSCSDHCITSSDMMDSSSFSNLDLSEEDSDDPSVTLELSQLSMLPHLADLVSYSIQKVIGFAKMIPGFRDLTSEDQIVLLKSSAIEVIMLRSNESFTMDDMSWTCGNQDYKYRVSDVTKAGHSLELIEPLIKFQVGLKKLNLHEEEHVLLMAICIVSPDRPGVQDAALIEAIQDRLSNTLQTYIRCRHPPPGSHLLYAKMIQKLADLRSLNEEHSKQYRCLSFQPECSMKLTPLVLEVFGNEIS
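VDR–SRC2-3 interaction, FP format. Cmpds 23 nl via pintool, brief spin, 2 h ambient incubation.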
The depositor's hits bear a star; ? = inconclusive; & = joins results of further samples. % is scaled to controls: 0 for no effect and ±100 for the full control effect; potency is read from the fitted curve at half-maximal effect.

#	SMILES	VDR inh
1	Cc1ccc(C2CC(C(F)F)n3ncc(C(=O)Nc4cnn(Cc5ccccc5C)c4)c3N2)cc1 (stereo not drawn)	0%
2	CCCCC(CC)C(=O)Nc1ccc(S(=O)(=O)Nc2nccs2)cc1 (stereo not drawn)	-11%
3	COc1ccc(OCCOC(=O)CN2C(=O)NC3(CCCC3)C2=O)cc1	14%
4	CCn1c2ccccc2c2cc(NC(=O)CC(C)=O)ccc21	-4%
5	CCOc1cc(C2C3=C(CCCC3=O)N(CCC(=O)O)C3=C2C(=O)CCC3)ccc1OS(=O)(=O)c1ccc(C)cc1	-8%
6	COc1ccc(NC(=O)CC(Cc2ccccc2)C(=O)O)cc1 (stereo not drawn)	2%
7	Cc1cccc(C(=O)Nc2ccc(C(=O)OCc3cc(=O)n4nc(CC(C)C)sc4n3)cc2)c1	6%
8	O=C(CN1C(=O)/C(=C/c2ccco2)SC1=S)Nc1ccc(C(=O)O)c(O)c1	9%
9	CCOc1cc(C(=O)Nc2ccc(S(=O)(=O)Nc3nnc(CC)s3)cc2)cc(OCC)c1OCC	27%
10	NC(=O)c1ccc[n+](Cc2cccc3ccccc23)c1	-6%
11	CC(=O)Nc1ccc(Nc2cc(N(C)C)c3nonc3c2[N+](=O)[O-])cc1	-4%
12	COc1cccc(-c2nc(CS(=O)(=O)CC(=O)N3CCN(c4cc(C)ccc4C)CC3)c(C)o2)c1	4%
13	Cc1cc(OCc2ccc(F)cc2)nc(-c2ccccc2O)n1	15%
14	CC(CC(=O)NC1CCSC1=O)c1ccccc1 (stereo not drawn)	10%
15	Cc1oc(-c2ccccc2Cl)nc1CS(=O)(=O)CC(=O)NCCN1CCOCC1	5%
16	Cc1noc(C)c1CSCC(=O)N(C)CC(=O)Nc1ccccc1C(F)(F)F	-8%
17	CC(Sc1nnc(-c2ccccc2)c(-c2ccccc2)n1)C(=O)N1CCc2ccccc21 (stereo not drawn)	-18%
18	COc1cccc(-c2cc(C(=O)N/N=C/c3ccco3)c3ccccc3n2)c1	-20%
19	CCOC(=O)c1cnc2c(cnn2C)c1Cl	-3%
20	Clc1ccccc1CN1CCN(/N=C/C=C\c2ccco2)CC1	-12%
21	COc1cccc(NC(=O)CSc2ccc3nnc(-c4ccncc4)n3n2)c1	-3%
22	c1ccc2c(c1)CCC[C@H]2Nc1nc2ccccc2[nH]1	-4%
23	COc1cccc(N(C(=O)c2ccco2)C(C(=O)NC2CCCC2)c2ccc(N(C)C)cc2)c1 (stereo not drawn)	-10%
24	COc1cccc(-c2nnc(NC(=O)c3ccc(S(=O)(=O)N(CC(C)C)CC(C)C)cc3)o2)c1	1%
25	CCCc1ccc2oc(C(=O)N3CCN(CC(=O)NC(C)C)CC3)c(C)c2c1	-23%
26	CNCC(=O)NCC(=O)N[C@@H](Cc1ccccc1)C(=O)N[C@@H](CC(C)C)C(=O)O	7%
27	COC(=O)c1c(-c2ccc(Br)cc2)csc1NC(=O)Cc1ccc(OC)c(OC)c1	4%
28	Nc1sc2c(c1C(=O)NC1CCS(=O)(=O)C1)CCC2 (stereo not drawn)	-7%
29	N=C1/C(=C\c2ccc(SCc3ccccc3)o2)C(=O)N=C2SC(CC(=O)N3CCOCC3)=NN12	-3%
30	Cc1cc(-c2ccccc2)c2ccc(NC(=O)C(C)(C)C)nc2n1	-11%
31	COc1ccc(NC(=O)C(=O)NCC2CCCN2S(=O)(=O)c2cccs2)cc1 (stereo not drawn)	-1%
32	Cc1cc(C)nc(SCC(=O)Nc2ccc(S(=O)(=O)Nc3nccs3)cc2)n1	-4%
33	CC(=O)c1cccc(NC(=O)c2onc(C)c2Cl)c1	-20%
34	COCCCNC(=O)C[C@H]1C[C@H](C(=O)N2CCOCC2)[C@@]2(CCC3CCCC3)c3[nH]c4cc(CCC(=O)N(C)C)ccc4c3CCN2C1=O	-26%
35	COc1ccc(S(N)(=O)=O)cc1C(=O)NCCCN1CCN(c2ccccc2OC)CC1	1%
36	COc1ccccc1C(=O)N1CCCC1(C#N)c1ccccc1 (stereo not drawn)	-16%
37	Cc1ccc(NC(=S)N/C(=N/S(=O)(=O)c2ccccc2)c2ccccc2)cc1	-5%&-7%
38	Cc1ccc(N(CC(C)C)S(=O)(=O)c2nnc(NC(=O)C(C)C)s2)cc1	2%
39	Cc1nn(C)cc1C(=O)NNC(=S)Nc1ccccc1	-5%
40	CC(=O)Nc1ccccc1-c1nc2ccccc2n(C(C)C(=O)Nc2cc(Cl)ccc2C)c1=O (stereo not drawn)	8%
41	COc1cc2nc(CN(CCC(C)C)Cc3nc4cc(OC)c(OC)cc4c(=O)[nH]3)[nH]c(=O)c2cc1OC	26%
42	COc1ccc(CC(=O)Nc2cccc(SC)c2)cc1	10%
43	CCOC(=O)c1nncc(-c2ccccc2)n1	4%
44	CCOc1ccc(C(C)NC(=S)NC2CCCCC2)cc1OCC (stereo not drawn)	-11%
45	O=c1c2ccc(Cl)cc2[nH]c(=S)n1CCCN1CCOCC1	-13%
46	Cc1cc(Cl)ccc1Nc1nc(NCc2ccco2)nc2nccnc12	-13%
47	CCN(CC)S(=O)(=O)c1ccc(C)c(NC(=O)CNc2cccc(S(=O)(=O)N3CCCC3)c2)c1	-2%
48	O=C(/C=C/Nc1ccc(S(=O)(=O)Nc2ncccn2)cc1)c1ccc(Cl)c(Cl)c1	-14%
49	COc1ccc(S(=O)(=O)N2CCCCCC2)cc1C(=O)NCc1ccccc1Cl	6%
50	Cc1ccc(SCc2cn3cc(Cl)ccc3n2)cc1	6%
51	CC1CCCCN1S(=O)(=O)c1ccc(C(=O)Nc2nnc(C3CC3)o2)cc1 (stereo not drawn)	3%
52	O=C(Nc1cccc(O)c1)c1ccccc1	12%
53	O=C(O)CC1C(=O)NCCN1Cc1cccs1 (stereo not drawn)	1%
54	COc1ccc(NC(=O)CSc2nnc(Cn3cnc4ccccc43)o2)cc1	-9%
55	Cc1ccc(NC(=O)CC(O)(C(F)(F)F)C(F)(F)F)c(Br)c1	6%
56	Cc1cccc(NS(=O)(=O)c2cc3c(cc2C)N(C)CCO3)c1	-12%
57	Cc1ccc(F)cc1NC(=O)CSc1nc(-c2cccs2)cc(C(F)(F)F)n1	?
58	COc1ccc(CCNc2ncnc3cc(OC)c(OC)cc23)cc1OC	14%
59	O=C(CC1C(=O)NCCN1C(=O)Nc1ccccc1)Nc1cccc(C(F)(F)F)c1 (stereo not drawn)	3%
60	O=C(C[C@@H]1NS(=O)(=O)OC2CCCCC21)c1ccccc1 (stereo partly drawn)	-11%

Continuation.
#	SMILES	VDR inh
61	Cc1cc(C)cc(OCC(=O)N/N=C/c2ccco2)c1	2%
62	O=C(CSc1nccn1-c1ccc(F)cc1)Nc1ccc(OC(F)(F)F)cc1	1%
63	CCOC(=O)c1sc(NC(=O)c2nc(SCC)ncc2Cl)c(C(=O)OCC)c1C	10%
64	Cc1cc(C)c2cc(CN(CCCO)S(=O)(=O)c3ccccc3F)c(=O)[nH]c2c1	13%
65	Cc1ccc(C(=O)N/C(=C/c2cccc([N+](=O)[O-])c2)C(=O)NCC2CCCO2)cc1 (stereo not drawn)	9%
66	CCc1nc(SCC(=O)NNC(=O)C2CCCCC2)c2ccccc2n1	6%
67	O=C(COC(=O)c1cc(Cl)ccc1O)Nc1cc(C(F)(F)F)ccc1N1CCOCC1	12%
68	Cc1ccc(Cl)cc1Nc1nc(-c2sc(NC(=O)C(C)(C)C)nc2C)cs1	7%
69	CCOc1ccc(S(=O)(=O)Nc2cccc(-c3ccc(N4CCCC4)nn3)c2)cc1	11%
70	CCOc1ccccc1CNC(=O)Cn1ccc2cc(S(=O)(=O)N3CCC(C)CC3)ccc21	-2%
71	Cc1cccc(C)c1OCc1cc(C(=O)NCc2ccc(Cl)s2)no1	-6%
72	CCc1nnc(NC(=O)CN2CCN(Cc3ccccc3C)CC2)s1	-10%
73	O=C(COC(=O)c1cccc(S(=O)(=O)N2CCOCC2)c1)Nc1ccc2c(c1)OCO2	-7%
74	Nc1ccc2oc(-c3ccccc3Br)nc2c1	2%
75	COc1ccc(Nc2nc(-c3cccs3)cs2)cc1	?

Already shown: entries from further up.
#	SMILES	VDR inh
61	Cc1cc(C)cc(OCC(=O)N/N=C/c2ccco2)c1	2%
62	O=C(CSc1nccn1-c1ccc(F)cc1)Nc1ccc(OC(F)(F)F)cc1	1%
63	CCOC(=O)c1sc(NC(=O)c2nc(SCC)ncc2Cl)c(C(=O)OCC)c1C	10%
64	Cc1cc(C)c2cc(CN(CCCO)S(=O)(=O)c3ccccc3F)c(=O)[nH]c2c1	13%

The listing continues:
#	SMILES	VDR inh
76	Cc1ccc(S(=O)(=O)NCCC(=O)N2CCOCC2)cc1C	-8%
77	CCOc1ccc(-c2c(C(=O)N/N=C/c3ccccc3)nnn2-c2nonc2N)cc1	3%
78	COc1ccc(N(CC(=O)N2CCCCCC2)S(C)(=O)=O)cc1Cl	-5%
79	O=C(CC12CC3CC(CC(C3)C1)C2)NCC(c1ccc(F)cc1)N1CCOCC1 (stereo not drawn)	-4%
80	CN(Cc1ccsc1)C(=O)CCc1nnc(CCCc2ccccc2)o1	-14%
81	CCOc1ccc2c(c1)c(=O)c(S(=O)(=O)c1ccc(CC)cc1)cn2Cc1cccc(Cl)c1	1%
82	Cc1cnc(NC(=O)Cn2cnc3c2c(=O)n(C)c(=O)n3C)s1	-6%
83	Cc1ccc(OCCNC(=O)Cn2cnc3c(=O)n(C)c(=O)n(C)c32)cc1C	7%
84	O=C(CN(C(=O)C1COc2ccccc2O1)c1ccccc1)NCC1CCCO1 (stereo not drawn)	-8%
85	COc1ccc(OCCSc2nc3ccccc3n2CC(=O)N2CCOCC2)cc1	5%
86	Cc1ccc(C)c(N2CCN(C(=O)CN3CCSc4ccc(S(=O)(=O)N(C)C)cc43)CC2)c1	26%
87	COc1ccc2c(Sc3ccccc3)c(C(=O)NCc3cc(Br)ccc3OC)[nH]c2c1	9%
88	CCOc1ccc(OC(=O)c2c(-c3ccccc3Cl)noc2C)cc1	-1%
89	COc1ccccc1/C=C/C1(C(=O)NC2CCCC2)CC(=O)N1c1ccccc1 (stereo not drawn)	-3%
90	O=C(NCc1ccncc1)c1cc(-c2ccc(Cl)cc2)oc1C(F)(F)F	7%
91	COc1ccc2nc(-c3ccccc3)[nH]c(=O)c2c1	-8%
92	COc1cccc(Nc2ncc3nc(CCc4ccccc4)c(=O)n(Cc4cccs4)c3n2)c1	-6%
93	CC(=O)O[C@@H]1[C@@H](OC(C)=O)[C@H](n2ccc3cc([N+](=O)[O-])ccc32)OC[C@@H]1OC(C)=O	-2%
94	CCN1CCN(c2cc(C)c3cc(NC(=O)c4ccc(Br)o4)ccc3n2)CC1	-10%
95	Cc1cc(C)c(S(C)(=O)=O)c(Oc2cccc(C(F)(F)F)c2)n1	7%
96	O=C1C(CSCc2ccccc2)NC(=S)N1c1ccccc1 (stereo not drawn)	-29%
97	CC(Oc1ccc(Br)cc1)C(=O)NCC1(N2CCCCC2)CCCCC1 (stereo not drawn)	0%
98	CC(=O)Nc1ccc(S(=O)(=O)NCCC(=O)Nc2cccc(Cl)c2)cc1	?
99	CN(C)c1ccc(C(c2ccc(N(C)C)cc2)C(O)c2ccccc2)cc1 (stereo not drawn)	22%
100	CCC(Sc1nc(-c2ccccc2F)nc2c1Cc1c(CO)cnc(C)c1O2)C(=O)Nc1cc(C)ccc1C (stereo not drawn)	-8%
101	O=Cc1cn(CC(=O)N2CCCCC2)c2ccccc12	-20%
102	O=C(NCCOc1ccccc1)c1ncn[nH]1	8%
103	COc1cccc(-n2nnnc2SCC(=O)Nc2cccc(NC(C)=O)c2)c1	4%
104	O=C(NN1C(=O)c2ccccc2C1=O)c1ccc2c(c1)C(=O)N(CC1CCCO1)C2=O (stereo not drawn)	5%
105	O=[N+]([O-])c1cc(-c2cnc3ccccc3n2)ccc1Oc1ccc(Cl)cc1	10%
106	COc1ccc2[nH]cc(C3N4CC5(C)CN3CC(C)(C4)C5=O)c2c1 (stereo not drawn)	1%
107	COC(=O)C(C(=O)OC)C(C[N+](=O)[O-])c1ccc(OC)c(OC)c1 (stereo not drawn)	-18%
108	COC(=O)c1c(NC(=O)CN2CCOCC2)sc2c1CCC(C)C2 (stereo not drawn)	0%
109	C=CCNC(=O)C1CCC(=O)N1S(=O)(=O)c1ccc(C)cc1 (stereo not drawn)	-3%
110	COc1ccc(-c2cn3nc(N4CCCC(C(=O)NCc5ccc(Cl)cc5)C4)sc3n2)cc1 (stereo not drawn)	18%
111	NS(=O)(=O)c1cccnc1Nc1cccc(Cl)c1Cl	2%
112	O=C(NC(=S)NNC(=O)c1cnccn1)c1ccc(F)cc1	-30%
113	COc1cc(/C=N/NC(=O)C[n+]2ccccc2)cc(OC)c1OC	-2%
114	Cc1ccc(NC(=S)N2CCC(NC(=O)c3ccc(C)cc3)CC2)cc1	-4%
115	CC(Oc1ccc(S(=O)(=O)N2CCCC2)cc1[N+](=O)[O-])C(=O)NC(C)c1ccccc1 (stereo not drawn)	-15%
116	O=C(N/N=C/c1ccc([N+](=O)[O-])cc1)c1cccc2cc[nH]c12	-5%
117	CC1(C)CSC(=NCCc2ccccc2)N1C(=O)c1ccc(C#N)cc1	-16%
118	CCC(C)NC(=O)c1ccc(-n2c(-c3ccccc3)cc3c2CCCC3)cc1 (stereo not drawn)	-2%

Sorted by count of non-hydrogen atoms (low to high): part of the list above.
#	SMILES	VDR inh
109	C=CCNC(=O)C1CCC(=O)N1S(=O)(=O)c1ccc(C)cc1 (stereo not drawn)	-3%
113	COc1cc(/C=N/NC(=O)C[n+]2ccccc2)cc(OC)c1OC	-2%
114	Cc1ccc(NC(=S)N2CCC(NC(=O)c3ccc(C)cc3)CC2)cc1	-4%
118	CCC(C)NC(=O)c1ccc(-n2c(-c3ccccc3)cc3c2CCCC3)cc1 (stereo not drawn)	-2%
115	CC(Oc1ccc(S(=O)(=O)N2CCCC2)cc1[N+](=O)[O-])C(=O)NC(C)c1ccccc1 (stereo not drawn)	-15%
110	COc1ccc(-c2cn3nc(N4CCCC(C(=O)NCc5ccc(Cl)cc5)C4)sc3n2)cc1 (stereo not drawn)	18%

Only part of the results is shown (hit frequency here may not be typical).
